# Source: PubChem
# gsp ag: qHTS for Agonist of gsp, the Etiologic Mutation Responsible for Fibrous Dysplasia/McCune-Albright Syndrome: qHTS; gsp mutant cells, cAMP HTRF, 30 min; control for the full effect not named in the record; Potency, µM (titrated, usually from 76.9 µM), without a hit: at the highest dose activation (cAMP increase), most hits filed as activators; 340,000 tested, 0.13% active; AID 624287, 2012; active = well fitted activation curve with a large enough effect; inconclusive = small, poorly fitted or top-dose-only effect, or another doubt; inactive = no such curve, though single readings can be large or run the other way; cell line not stated here;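 note: phosphodiesterase inhibitor Ro 20-1724 added with compounds to block cAMP breakdown; potency is the fitted concentration of half-maximal effect; nearly all actives have a fitted effect of over 60% in size; about a fifth of the inactives were tested at one dose only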
#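 Cells in DMEM/10% FBS with G418 were pretreated with compounds in DMSO plus […] (300 uM stock) for 30 min at 37C. cAMP was measured by HTRF (cAMP-d2 plus anti-cAMP antibody-K) after 30 min at room temperature.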
# CtBP-E1A blk: qHTS Assay for Inhibitors of the CtBP/E1A Interaction. CtBP / adenovirus E1A interaction (AlphaScreen). AlphaScreen GST-E1A/His-CtBP binding, 1536-well; hits give low values; control for the full effect not named in the record. activity change, % (test concentration not listed). 340,000 tested, 0.49% active; in the data active means activity change below about -65%; inconclusive means about -30% to -65%; inactive means above about -30%; note: % is set by controls: 0 for no effect and ±100 for the full control effect; compound concentration not given in the record
#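 Homogeneous bead-based format: GST-tagged E1A captured on glutathione donor beads, His-tagged CtBP on nickel acceptor beads; compounds precede bead addition by 2 h at 37 °C.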
# D2 agonist: Beta-Arrestin HTS for Positive Allosteric Modulators of the Human D2 Dopamine Receptor: Agonists; AID 624465, 2012; DiscoveRx PathHunter D2 beta-arrestin, luminescence, 90 min; 100% = 57 uM dopamine signal; 360,000 tested, 0.084% active; activation, % (concentration not given with the values); in the data active = activation above about 40%; inconclusive = about 15% to 40%; inactive = below about 15%; note: compound concentration not given in the record; the text of the record calls up to 30% inactive
#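 Agonist mode: compounds alone added to overnight-plated D2 PathHunter cells for 90 min at 37 C, with 57 uM final dopamine (EC100) defining full response. Beta-arrestin recruitment detected by chemiluminescent reagent, read after 1 h at ambient temperature.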
# D2 potentiator: Beta-Arrestin HTS for Positive Allosteric Modulators of the Human D2 Dopamine Receptor: Potentiators | D(2) dopamine receptor (Homo sapiens), P14416 | potentiation, % (concentration not given with the values) | AID 624464, 2012 | 360,000 tested, 0.23% active | DiscoveRx D2 beta-arrestin cells, luminescence, 90 min; 100% = 57 uM dopamine signal; active = potentiation of 50% or more; inconclusive = 30% to 50%; inactive = 30% or less;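 note: compound concentration not given in the record; tested on top of an EC20 dose of dopamine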
#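 PathHunter D2 cells, attached overnight at 37 deg C, received compound in DMSO plus dopamine at EC20 (50 nM final) for 90 min at 37 deg C. Beta-arrestin recruitment was read as luminescence after 1 h with detection reagent at ambient temperature.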
# gsp antagonist: qHTS for Antagonists of gsp, the Etiologic Mutation Responsible for Fibrous Dysplasia/McCune-Albright Syndrome: qHTS; 340,000 tested, 0.4% active; Potency, µM (highest dose often 76.9 µM), without a hit: top-dose activity change, negative = inhibition, actives largely listed as inhibitors; AID 624288, 2012; gsp-mutant cells, cAMP HTRF, 30 min; control for the full effect not named in the record; active = falling curve of any shape with a large fitted effect; inconclusive = falling curve, mostly with a smaller effect; inactive = flat or rising curve; cell line not stated here;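 note: intracellular cAMP measured with PDE inhibitor Ro 20-1724 present during compound exposure; potency is the fitted concentration of half-maximal effect; % is set by controls: 0 for no effect and ±100 for the full control effect; nearly all actives have a fitted effect of over 65% in size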
#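 Cells in G418 medium, seeded 16-24 h, 37C; buffer exchange to DPBS + 1 mM CaCl2, 0.5 mM MgCl2, 0.05% BSA; cpds in DMSO + […] (300 uM stock), 30 min 37C; HTRF cAMP detection.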
# Six1-Eya2 inh: qHTS Assay for Inhibitors of the Six1/Eya2 Interaction; Homeobox protein SIX1 (Homo sapiens) + Protein phosphatase EYA2 (Homo sapiens), …; AlphaScreen GST-Six1/His-Eya2 binding, biochemical; hits give low values; control for the full effect not named in the record; activity change, % (test concentration not listed); 360,000 tested, 0.56% active; AID 651725, 2012; in the data active = activity change below about -65%; inconclusive = about -30% to -65%; inactive = above about -30%; note: % is set by controls: 0 for no effect and ±100 for the full control effect; compound concentration not given in the record
# Target sequence (O00167 whole entry, looked up): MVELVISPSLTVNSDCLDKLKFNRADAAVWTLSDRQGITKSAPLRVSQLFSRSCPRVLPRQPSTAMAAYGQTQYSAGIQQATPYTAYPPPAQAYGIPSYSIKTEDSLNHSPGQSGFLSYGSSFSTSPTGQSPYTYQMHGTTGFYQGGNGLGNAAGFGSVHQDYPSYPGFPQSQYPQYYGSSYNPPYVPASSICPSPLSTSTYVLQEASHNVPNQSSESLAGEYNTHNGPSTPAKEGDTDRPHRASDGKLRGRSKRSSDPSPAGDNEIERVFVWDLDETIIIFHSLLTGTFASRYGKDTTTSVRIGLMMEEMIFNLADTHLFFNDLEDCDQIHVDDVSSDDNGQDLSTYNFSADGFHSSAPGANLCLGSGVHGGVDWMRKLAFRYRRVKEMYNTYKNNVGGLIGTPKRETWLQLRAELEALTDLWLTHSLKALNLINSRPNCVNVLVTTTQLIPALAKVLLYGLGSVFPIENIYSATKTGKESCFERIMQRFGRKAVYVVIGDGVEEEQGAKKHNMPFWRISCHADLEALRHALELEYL
# Target sequence (Q15475 whole entry, looked up): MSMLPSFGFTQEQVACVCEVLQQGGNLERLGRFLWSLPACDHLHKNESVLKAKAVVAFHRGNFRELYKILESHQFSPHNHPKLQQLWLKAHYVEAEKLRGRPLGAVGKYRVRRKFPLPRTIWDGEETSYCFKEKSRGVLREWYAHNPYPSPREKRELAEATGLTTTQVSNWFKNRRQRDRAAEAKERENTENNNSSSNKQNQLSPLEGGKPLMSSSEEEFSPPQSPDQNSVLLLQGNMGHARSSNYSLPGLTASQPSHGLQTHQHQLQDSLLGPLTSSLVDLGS
#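 AlphaScreen luminescence read after one hour at 37 °C in darkness. Pin-transferred compounds met GST-Six1 and His-Eya2 protein (5X stock 250 nM/500 nM) plus glutathione donor and Ni-chelate acceptor beads (5X, 50 ug/mL).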
# * marks the source's active call; other numbers are inactive results; ? = inconclusive; . = not tested or not shown; [ ] = remark or other dose. Outcome played no part in choosing rows. Share with any hit: about 1.4%.
SMILES,gsp ag,CtBP-E1A blk,D2 agonist,D2 potentiator,gsp antagonist,Six1-Eya2 inh
O=C(N/N=C\C=C\c1ccc2c(c1)OCO2)C1COc2ccccc2O1 (stereo not given),5%,.,0.9,-6,?,-10
O=C1CC(C(=O)N2CCN(c3ccccc3Cl)CC2)CN1Cc1ccccc1 (stereo not given),10%,-6,0.3,-4,4%,4
CCn1cc(C(=O)NC2CC(C)(C)Cc3c2cnn3-c2cccc(F)c2)cn1 (stereo not given),-48%[inhibitor],5,-2.8,-2,0%,1
COc1cc(C(=O)OCC(=O)N2CCCCC2C)ccc1OCc1c(C)noc1C (stereo not given),3%,.,-6.5,-5,-5%,-12
Cc1sc2ncnc(Nc3ccccc3)c2c1C,4%,11,-3.1,-12,1%,3
Cc1ccc(O)c(NC(=O)CCC2CCCCC2)c1,-17%,4,-2.2,14,-4%,-4
O=C(c1cccs1)N(Cc1cccc(F)c1)C1CCS(=O)(=O)C1 (stereo not given),16%,9,0.9,-5,-4%,2
Nc1nc(Nc2ccccc2F)nc(NCc2ccco2)c1[N+](=O)[O-],13%,-26,-2.9,-12,13%,-15
CC(C)COC(=O)c1ccc(NC(=O)C2C3CCC(C3)C2C(=O)O)cc1 (stereo not given),0%,2,-2.8,5,-10%,11
COc1ccccc1NS(=O)(=O)NC(=O)c1c(C)[nH]c2ccccc12,-13%,.,7.8,-3,-6%,6
Cc1onc(-c2c(Cl)cccc2Cl)c1C(=O)N=C(N)N1CCOCC1,13%,4,-4.6,-7,-7%,-1
COC(=O)C(Cc1ccc(O)cc1)NC(=O)CCc1nc2ccccc2s1 (stereo not given),?,3,-1.7,-3,-4%,5
CC(C)c1ccc(NC2CCCN(C(=O)c3ccncc3)C2)cc1 (stereo not given),42%,12,1.8,-5,-8%,-3
CCCCOC(=O)CSc1nc(N)c(C#N)c(-c2ccc(OCC)cc2)c1C#N,?,4,0.2,16,22%,-2
Nc1nnn(CC(=O)N/N=C/c2ccncc2)n1,-17%,4,-4.0,-5,14%,0
CCOc1ccccc1NC(=O)Nc1cnccn1,-4%[15.4 µM],1,-2.8,6,-9%,0
CCOc1ccc(N(CC(=O)NC2CCCCCC2)S(=O)(=O)c2c(C)noc2C)cc1,-4%,1,-4.7,-14,-10%,6
COc1ccc(NC(=O)C2Cc3c(-c4cccc(C(N)=O)c4)ccnc3O2)cn1 (stereo not given),.,-3,-1.5,4,.,-5
Cc1ccc(NC(=O)CCSc2nnc(-c3ccco3)o2)cc1,7%,3,-0.6,-6,-5%,-2
C/C(=N/OCO/N=C(/C)c1ccc(F)cc1)c1ccc(F)cc1,-1%,-3,-3.1,-9,-9%,15
COc1ccc2cc(C(c3nnnn3Cc3ccccc3)N3CCCCCC3)c(=O)[nH]c2c1 (stereo not given),12%,4,-0.3,2,-10%,0
Clc1ccc(CNCCCSc2ncccn2)cc1Cl,7%,4,4.2,-25,9%,0
S=C1c2ccccc2CN1c1ccccc1,6%,19,-1.9,-12,-3%,22
CCn1nc(C)cc1C(=O)Sc1cccc(Cl)c1,10%[15.4 µM],2,-3.5,-16,-1%,-3
Cc1oc(-c2ccccc2F)nc1CS(=O)CC(=O)NCc1ccccc1 (stereo not given),-6%,-1,-1.5,-1,4%,0

# 4 entries from above, reformatted:
> Nc1nnn(CC(=O)N/N=C/c2ccncc2)n1
- gsp ag: -17%
- CtBP-E1A blk: 4
- D2 agonist: -4.0
- D2 potentiator: -5
- gsp antagonist: 14%
- Six1-Eya2 inh: 0

> CCOc1ccccc1NC(=O)Nc1cnccn1
- gsp ag: -4%[15.4 µM]
- CtBP-E1A blk: 1
- D2 agonist: -2.8
- D2 potentiator: 6
- gsp antagonist: -9%
- Six1-Eya2 inh: 0

> CCOc1ccc(N(CC(=O)NC2CCCCCC2)S(=O)(=O)c2c(C)noc2C)cc1
- gsp ag: -4%
- CtBP-E1A blk: 1
- D2 agonist: -4.7
- D2 potentiator: -14
- gsp antagonist: -10%
- Six1-Eya2 inh: 6

> COc1ccc(NC(=O)C2Cc3c(-c4cccc(C(N)=O)c4)ccnc3O2)cn1 (stereo not given)
- gsp ag: .
- CtBP-E1A blk: -3
- D2 agonist: -1.5
- D2 potentiator: 4
- gsp antagonist: .
- Six1-Eya2 inh: -5

# Remaining list, next part:
SMILES,gsp ag,CtBP-E1A blk,D2 agonist,D2 potentiator,gsp antagonist,Six1-Eya2 inh
Cc1cc2c(cc1S(=O)(=O)NCc1ccc(N(C)C)cc1)OCC(=O)N2,-10%,-5,-0.4,-3,1%,-1
c1ccc(-c2cnnc3ccccc23)cc1,.,8,-0.8,-2,1%,10
Cc1nnc(SCC(=O)N2CCN(c3ccccc3)CC2)n1-c1ccccc1,-19%,8,-2.5,-25,0%,2
C=CCN(CC=C)Cc1cc(=O)oc2ccccc12,.,5,-2.1,-2,.,0
COc1ccc(NC(=O)C2C3CCC(O3)C2C(=O)O)c(C)c1 (stereo not given),-6%,5,-4.7,-4,-4%,-3
C#CCOCCOCCOCCNc1nc(N2CCN(C(=O)[C@H](CCCCN)n3cc(CN)nn3)CC2)nc(N2CCN(C(=O)[C@H](CCC(=O)O)n3cc([C@@H](N)CCSC)nn3)CC2)n1,.,-7,-3.6,.,9%,-3
O=C(O)C1CCCCC1C(=O)Nc1ccc(S(=O)(=O)N2CCOCC2)cc1 (stereo not given),1%[15.4 µM],-20,-3.6,2,-28%,9
CC(C)(C)OC(=O)N1CCC(C(=O)N[C@@H](Cc2c[nH]c3ccccc23)C(=O)O)CC1,?,0,-8.2,-9,4%,-11
COc1c2ccc(OCC/C(C)=C/C(=O)C=C(C)C)cc2nc2occc12,.,-9,-0.6,0,-8%,-7
CC1(C)Cc2c(c(N3CCOCC3)nc3sc(-c4ccc(C(=O)O)o4)c(N)c23)CO1,24%,-1,1.9,10,-4%,-5
Cc1ccc(S(=O)(=O)N2C[C@H]3C(=O)C[C@@H](c4ccccc4)N(S(=O)(=O)c4ccc(C)cc4)[C@H]3C[C@H]2c2cccc(C)c2)cc1,.,3,-3.1,-2,.,-9
O=C(COC(=O)Cc1ccccc1F)Nc1ccc2c(c1)OCO2,21%[15.4 µM],-4,-2.6,-5,1%,-7
O=C(Nc1ccc(Cl)cc1)N1CCSC1=NCc1ccccc1,7%[15.4 µM],5,-3.3,-4,3%,-5
CC1=C(C(=O)OCC2CCCO2)C(c2coc3ccc(C)cc3c2=O)C2=C(CCCC2=O)N1 (stereo not given),15%[15.4 µM],-7,-4.1,-6,-16%,0
OCC1OCOC2C(CO)OCOC12 (stereo not given),.,6,-5.1,-3,9%,-2
Nc1ncc(-c2ccccc2)c(-c2ccc(O)cc2O)n1,13%,-19,-5.5,0,-5%,-28
CCNC(=O)c1ccccc1-c1nc(-c2ccccc2)no1,13%[15.4 µM],9,-1.2,-11,-4%,6
Cc1ccc(-c2nc3ccccc3s2)cc1NC(=O)c1ccc2c(c1)OCO2,25%,-3,-2.5,0,-1%,0
COc1ccc(C)cc1NC(=O)c1ccc2c(c1)C(=O)N(Cc1ccncc1)C2=O,-25%,2,-1.1,0,-8%,2
CCOC(=O)c1c(S(=O)(=O)N2CCCC(C(=O)Nc3cccc(C)n3)C2)c(C)n(C)c1C (stereo not given),-18%,.,-5.8,1,5%,-2
COc1cccc(NC(=O)CSc2nnc(-c3cccs3)n2C)c1,0%,1,-4.0,-8,-4%,6
C=CCNC(=S)NNC(=O)c1cc(C)nc2ccccc12,4%,-4,-15,-35,-9%,3
O=C(Cn1cnc2c(nnn2Cc2ccc(F)cc2)c1=O)Nc1ccccc1,9%[15.4 µM],8,-1.4,4,10%,0
Cc1cccc(CNC(=O)c2ccccc2NC(=O)C2=CSCCO2)c1,8%,0,1.2,5,-25%,17
Cc1ccc(-c2nnc(N3CCOCC3)c3ccccc23)cc1S(=O)(=O)NCC1CCCO1 (stereo not given),-3%,-28,-3.0,-9,-20%,?
# (cont.)
SMILES,gsp ag,CtBP-E1A blk,D2 agonist,D2 potentiator,gsp antagonist,Six1-Eya2 inh
CC12CCC(C(=O)N(NC(=O)c3ccccc3O)C1=O)C2(C)C (stereo not given),-49%[inhibitor],6,-2.1,-7,6%,-5
O=C(N/C(=C\c1ccc(F)cc1)C(=O)N1CCOCC1)c1ccccc1,9%[15.4 µM],7,-0.6,0,.,8
CSc1ccc(CN2CCCC(CO)(Cc3ccccc3)C2)cc1 (stereo not given),?,.,-1.7,-12,14%,0
CCCCCn1c(SCC(=O)OCC)nc2cc(C(=O)NCc3ccco3)ccc2c1=O,-75%[inhibitor],-17,5.9,-11,-8%,0
N#C/C(=C\c1c(N2CCOCC2)nc2ccccn2c1=O)C(=O)NC1CCS(=O)(=O)C1 (stereo not given),0%[15.4 µM],0,-2.7,-9,4%,22
Cc1ccccc1-c1nnc(SCC(=O)N2CCCC2)o1,-14%[15.4 µM],1,-4.3,-1,-10%,0
COC(=O)Cn1cnc2c(nnn2-c2ccc(C)cc2)c1=O,14%,-1,-1.2,-5,0%,1
Clc1ncc(Cn2cccn2)s1,-39%[inhibitor],8,0.3,-20,11%,6
CC(=O)Nc1cc(C(=O)N2CCc3ccccc3C2)ccc1Sc1ccc(Cl)cc1,6%,-9,1.8,-2,?,-1
COc1cc(C(C(=O)NC(C)(C)C)N(Cc2ccc3c(c2)OCO3)C(=O)c2cnccn2)cc(OC)c1OC (stereo not given),?,52,-2.8,-4,0%,18
C/C(=N\Nc1nc(C)cc(C)n1)c1ccc(C)o1,-1%[15.4 µM],-8,-2.6,-4,5%,-12
O=C(Nc1cc(S(=O)(=O)N2CCOCC2)ccc1N1CCCC1)c1ccccc1F,?,2,-1.4,-2,.,3
Cc1ccc(C(C)C)c(OC(=O)/C=C/c2ccccc2)c1,-24%,196,-3.1,-10,-24%,108
O=C(CN1CC(c2ccccc2)CC1=O)Nc1ccc2c(c1)OCO2 (stereo not given),?,-5,-7.1,-6,6%,7
COc1ccc(C)cc1N1CC(C(=O)Nc2cccc(C(=O)NC3CC3)c2)CC1=O (stereo not given),-15%,-3,-3.3,-5,.,-2
Cc1cc(NC(=O)CCN2CC(C)OC(C)C2)ccc1Br (stereo not given),7%,-8,-7.5,-6,5%,2
CCCNC(=O)C(Cc1ccccc1C)NC(=O)c1ccc(C#N)cc1 (stereo not given),-1%,-4,-2.6,-13,-3%,-2
COc1cc2c3nc4n(c(=O)c3n(CC(=O)NCC3CCCO3)c2cc1OC)CCS4 (stereo not given),25%[15.4 µM],1,-0.3,0,5%,-9
